Screening data (PubChem BioAssay)
HPGD block: qHTS Assay for Inhibitors of HPGD (15-Hydroxyprostaglandin Dehydrogenase) | 15-hydroxyprostaglandin dehydrogenase [NAD(+)] (Homo sapiens), P15428 | purified HPGD, NADH fluorescence kinetic, PGE2 substrate | Potency, µM, inactives show top-dose activity change, negative = inhibition, hits mostly inhibitors | actives 4.3% (n = 150,000) | AID 894, 2007; active = well fitted inhibition curve with a large enough effect (not every such curve was filed as active); inconclusive = small, poorly fitted or top-dose-only effect, or another doubt; inactive = no such curve, though single readings can be large or run the other way;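 note: top concentration of the series not given in the record; plate controls included wells without enzyme; inactives centre near -10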
Target sequence (P15428 whole entry, looked up): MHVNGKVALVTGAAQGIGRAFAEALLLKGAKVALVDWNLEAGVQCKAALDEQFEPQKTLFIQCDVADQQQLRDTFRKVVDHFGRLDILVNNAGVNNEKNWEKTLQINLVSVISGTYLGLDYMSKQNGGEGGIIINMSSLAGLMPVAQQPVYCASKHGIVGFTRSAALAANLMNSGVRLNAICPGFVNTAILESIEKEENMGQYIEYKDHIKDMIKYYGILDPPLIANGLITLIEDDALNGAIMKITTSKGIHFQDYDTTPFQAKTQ
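20 nM HPGD preincubated 15 min at room temperature with compound in 50 mM Tris-HCl pH 8, 0.01% Tween 20. Started with 1 mM NAD+ and 30 uM prostaglandin E2; NADH fluorescence (360/450 nm) read 5 times over 30-s intervals, last minus first.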
Starred values were filed as active, the others as inactive; u = inconclusive; & = joins results of further samples. % is set by controls: 0 for no effect and ±100 for the full control effect; potency is the fitted concentration of half-maximal effect. Only part of the results is shown; rates above refer to the full screens.

SMILES	HPGD block
Cc1ccc(SCCNC(=O)C(CO)(CO)CO)cc1	-7%
Cc1ccc(Nc2ncnc3c2oc2ccccc23)cc1	u
O=C(CSc1ncnc2c1oc1ccccc12)c1cccs1	-26%
Cc1cc(C#N)c(C)c(SCc2[nH]nc3c2C(c2ccccc2)C(C#N)=C(N)O3)n1 (configuration not stated)	-27%
O=C(COC(=O)CSc1nnc(-c2ccc(Cl)cc2)o1)NCc1ccc2c(c1)OCO2	-10%
CC1CCN(C(=S)c2ccc3c(c2)OCO3)CC1	28µM*
COc1cc(OC)cc(C(=O)NCCSCc2ccco2)c1	20µM*
CCOC(=O)c1sc(NC(=O)CN2C(=O)NC3(CC(C)CC(C)(C)C3)C2=O)c(C(=O)OCC)c1C (configuration not stated)	-10%
CNC(=O)/C(C#N)=c1\s/c(=C/C(=O)OC)c(=O)n1-c1ccccc1	-6%
CN1c2ccccc2C(O)=C(C(=O)Nc2ccccc2)S1(=O)=O	3%
CCN(CC)S(=O)(=O)c1ccc(N2CCOCC2)c(NC(=O)CC23CC4CC(CC(Br)(C4)C2)C3)c1	-12%
O=C1OC(=O)C2C1[C@@H]1CC[C@H]2O1 (some centres not stated)	-10%
COc1nc(NCCN2CCOCC2)nc(Nc2ccc([N+](=O)[O-])cc2)n1	-8%
Cc1cc(C)c(OCCOCCN2CCNCC2)c(C)c1	-4%
Cc1cc(C)nc(N/N=C/c2ccccc2OCc2ccccc2)n1	-10%
CCN1CCN(CCNC(=O)c2ccc(CS(=O)(=O)c3ccccc3C)o2)CC1	-8%
O=C(NC(Nc1nc2ccc([N+](=O)[O-])cc2s1)(C(F)(F)F)C(F)(F)F)c1ccccc1Cl	-2%
CC(C)(C)NS(=O)(=O)c1ccc(OCC(=O)NCCC2=CCCCC2)cc1	2%
O=C(NCc1ccc(F)cc1)C1CCN(S(=O)(=O)N2CCC3(CC2)OCCO3)CC1	-13%
Cc1nc(SCC(=O)N2CCc3ccccc32)n[nH]1	-9%
O=C(c1ccc(Br)o1)N1CCN(c2ccc3nnc(-c4ccc(F)cc4)n3n2)CC1	-10%
O=C(Cc1ccccc1)Nn1c(O)c(/C=C2\C=Nc3ccccc32)sc1=S	-10%
CC1CCCCN1C(=O)CN1C(=O)CN(C)C(=O)c2ccccc21 (configuration not stated)	-9%
CC1=C(C(=O)Nc2ccc(Br)cc2)C(c2ccco2)NC(=O)N1 (configuration not stated)	-11%
CSCCC(NS(=O)(=O)c1ccc2ccccc2c1)C(=O)O (configuration not stated)	-4%
COc1cc(C(=O)Nc2sc3c(c2C(=O)NCc2ccco2)CCCC3)cc(OC)c1OC	u
CCC(C)(C)n1nnnc1C(C(C)C)N(CCN1CCOCC1)Cc1cc2cccc(C)c2[nH]c1=O (configuration not stated)	2%
FC(F)(F)c1cccc(Cn2nnnc2-c2ccc(Cl)cc2)c1	-20%
CCc1ccc2[nH]c(=O)c(CN(CCCN3CCOCC3)C(=O)Nc3ccccc3)cc2c1	-9%
O=C(c1cccc(Cl)c1)N1CCN(Cc2ccccc2F)CC1	-8%
CCOC(=O)C(=O)Nc1cccc(C(=O)OCC)c1	-7%
CC(C)CCNC(=O)[C@@H](NC(=O)c1c(F)cccc1F)C(C)C	-8%
O=C(O)c1cccc(Oc2ccc([N+](=O)[O-])cc2)c1	-13%
Cc1ccc(S(=O)(=O)N2CCCN(S(=O)(=O)c3ccc(C(F)(F)F)cc3)CC2)cc1	-6%
COc1cccc(-c2nnc(SCC(=O)OC(C)C)n2N)c1	-5%
CCC(c1nnnn1CCOC)N1CCN(Cc2ccccc2)CC1 (configuration not stated)	-5%
C=CCOC(=O)N[C@@H](CC(C)C)/C(C(=O)OC)=C(\C)NCc1ccccc1	-20%
C=CCn1c(Cc2cccs2)nnc1SCC(=O)Nc1ccc(OC)c(OC)c1	-6%
O=S(=O)(O)c1ccc(N=Nc2ccc3c(S(=O)(=O)O)cccc3c2O)c2ccccc12	-11%
Cc1ccc2[nH]c(=O)c(CN(CC3CCCO3)S(=O)(=O)c3cccc4nsnc34)cc2c1 (configuration not stated)	-8%
COc1ccc(OC)c(NC(=O)CSc2nc(N)c(-c3ccccc3)c(=O)[nH]2)c1	-8%
CCOC(=O)CSc1nnc(Cc2ccc(OC)cc2)n1-c1ccccc1	-16%
CCc1nnc(NC(=O)CSc2nc3ccccc3s2)s1	-8%
COc1ccc(NS(=O)(=O)c2cccc(C(=O)OCC(=O)Nc3cc(C)on3)c2)cc1	-7%
COc1ccc(N2CCN(C(=O)CSc3ccccc3)CC2)cc1	-8%
CC1(C)OC(=O)C(=NNc2ccc(Cl)cc2)C(=O)O1	-27%
O=C(CC1SC(N2CCCCC2)=NC1=O)Nc1cccc(C(F)(F)F)c1 (configuration not stated)	-7%
CCCCCC1=C2CNC(CCC)(C(=O)OC)C=C2C(C)C1=O (configuration not stated)	-22%
NNc1nc(-c2ccccc2)nc2sc3c(c12)CCCC3	u
Nc1nc(-c2ccccc2)cs1	-8%&-13%
COC(=O)Cn1c(=NC(=O)C(C)C)sc2c(C)cc(C)cc21	-12%
Cc1ccc2c(c1)C1CN(C)CCC1N2CC(=O)N(C)c1ccccc1 (configuration not stated)	1%
COc1ccc(CCNC(=O)c2ccc(CS(=O)(=O)c3ccc(Cl)cc3)o2)cc1OC	-10%
Cc1cc(C)n(/N=C/c2c[nH]c3ccccc23)c(=O)c1C#N	-14%
COc1ccc2[nH]c(C)c(C(=O)CN3CCN(C/C=C/c4ccccc4)CC3)c2c1	-9%
O=C(COC(=O)c1cccs1)c1ccccc1	-25%
O=C(C1=C[C@@H]2[C@H]3C(=O)N(c4ccccc4)C(=O)[C@H]3[C@@H](C(=O)c3ccc(Cl)cc3)N2C=C1)c1ccccc1	-16%
Cc1cc(C)cc(C(=O)NC(=S)Nc2ccc(Cc3ccncc3)cc2)c1	-6%
CCn1nc(C(=O)NNC(=O)COc2ccccc2C)c2ccccc2c1=O	-6%
O=c1[nH]nc(Cc2ccccc2)c2ccccc12	-16%

More structures follow.
SMILES	HPGD block
COCCN1C(=O)C(=O)/C(=C(/O)c2cccc(OC)c2)C1c1ccc(C)o1 (configuration not stated)	-22%
Cc1ccc(CNC(=O)C2CC(c3ccccc3[N+](=O)[O-])=NO2)cc1 (configuration not stated)	-17%
O=C(NCc1ccc2c(c1)OCO2)c1ccc(NC(=O)C2CCCO2)cc1 (configuration not stated)	-14%
CCCCn1c(/N=C/c2c[nH]c3ccccc23)nc2ccccc21	-18%
COc1ccccc1Oc1ccccc1C(=O)O	-16%
CN(CCCNC(=O)C1CCN(S(=O)(=O)c2cccc3nsnc23)CC1)Cc1ccccc1	-4%
N#Cc1cccc(NC(=O)NCCc2c[nH]c3ccccc23)c1	-15%
CC1(OC(=O)CCc2ccccc2)C(=O)C=C2C=C(c3ccc(C#N)cc3)N(C3CCCCC3)C=C2C1=O (configuration not stated)	0%
Brc1ccc(-c2noc(COc3ccc4c(c3)CCC4)n2)o1	-16%
CN(C)c1ccc(C(=S)N2CCOCC2)cc1	-16%
COc1ccc(-n2c(Cc3cccn3C)nnc2SCC(=O)Nc2cccc(F)c2)cc1	-16%
COc1ccc(NC(=S)Nc2ccc(S(=O)(=O)N3CCOCC3)cc2)c(OC)c1	-7%
O=C(/C=C/c1ccco1)N1CCN(c2ccccc2)CC1	0%
COc1ccc(Cl)cc1C(=O)NCCc1ccc(S(=O)(=O)NC(=O)NC2CCCCC2)cc1	-9%&-8%&-11%&2%&-11%&2%
O=C(Nc1cnn(Cc2ccc(F)cc2)c1)C(c1ccccc1)c1ccccc1	-19%
Cc1ccc(S(=O)(=O)N2CCCC2C(=O)n2nc(C)cc2C)cc1 (configuration not stated)	1%
CC(C)c1nc(SCC(=O)Nc2ccc3c(c2)OCCO3)c2c(=O)n(C)c(=O)n(C)c2n1	3%
COc1ccc(CNc2ncnc(N)n2)cc1	-1%
CCOC(=O)N1CCN(C(=O)c2cnsn2)CC1	-5%
O=C(Cc1ccccc1Cl)NCCCn1ccnc1	-1%
Cc1nn(C(C)C(=O)NCc2ccccc2Cl)c(=O)c2c1sc1ccccc12 (configuration not stated)	-24%
CCOC(=O)c1c(-c2cccc3ccccc23)csc1NC(=O)C1C2CCC(O2)C1C(=O)O (configuration not stated)	-11%
N#Cc1nc(-c2ccc(OCc3ccccc3)cc2)oc1NCCCN1CCOCC1	u
CCOc1cc(-c2noc(CCC(=O)N3CCOCC3)n2)ccc1OC	-9%
COc1ccc(C2C(C#N)=C(C)NC3=C2S(=O)(=O)c2ccccc23)cc1 (configuration not stated)	u
CN1CCN(c2ncc3nc(-c4ccccc4)c(=O)n(-c4ccccc4)c3n2)CC1	u
COC(=O)c1sc(NC(=O)COc2ccc(C)cc2)nc1C	-4%
C[C@@H](C(=O)NCc1ccccn1)[C@H]1C[C@]1(C)[C@H](NC(=O)OCc1ccccc1)c1ccccc1	-26%&-13%
CCOC(=O)c1oc2cccc(O)c2c1CN1CCOCC1	-7%
Cn1c(=O)n(C/C=C/c2ccccc2)c(=O)c2c1nc1n2CCCN1c1ccc(F)cc1	-25%
O=c1[nH]c(C(Cl)Cl)nc2sc3c(c12)CCN(Cc1ccccc1)C3	u
Cc1nnc(NC2(C(F)(F)F)C(=O)Nc3c2c(=O)n(C)c(=O)n3C)s1 (configuration not stated)	-9%
CN(C)CCN(C)Cc1ccc2c(c1)Cc1ccccc1-2	-15%
COc1ccc2cc(C(=O)NCC(=O)O)sc(=O)c2c1OC	-11%
CN(N)c1nc(-c2ccccc2)nnc1C(F)(F)F	-3%
O=S(=O)(c1ccccc1Cl)N1CCCC1c1nc(-c2ccc(Cl)cc2)no1 (configuration not stated)	-13%
NC(N)=NC[C@@H]1COC2(CCCCC2)O1	-3%
O=S(=O)(c1cccs1)N1CN(Cc2ccc(Cl)cc2)c2nc3ccccc3nc21	-17%
CCCC(=O)NNC(=O)Nc1ccccc1	-1%
Cc1cc(C(=O)CSc2ccc(Cl)cc2)cc(C)c1OC(=S)N(C)C	-17%
Cc1cc(C)n2nc(SCn3nnc4ccccc4c3=O)nc2n1	-7%
O=[N+]([O-])c1ccccc1CNc1ccc(F)c(Cl)c1	-5%
O=C(CCN1C(=O)COc2ccccc21)NCc1ccco1	-18%
O=C(CN1CCN(Cc2ccccc2)CC1)N=Nc1c(O)[nH]c2ccccc12	-5%
COc1ccc(/C=C\C(=O)c2c(O)ccc3c(C)cc(=O)oc23)cc1OC	-17%
COC(=O)C1=C(C(=O)OC)[C@@H]2N(C)c3ccc(OC)cc3[C@@]23C[C@@H](C(=O)OC)N(C(=O)c2cccs2)C3=N1	1%
CCc1c2c(nc3cccc(SC)c13)COC2	u
O=C(Nc1ccc2c(c1)OCO2)C1CCCN(c2nc3ccccc3s2)C1 (configuration not stated)	-5%
Cc1cccc(N2CCN(C(=O)/C=C/c3ccco3)CC2)c1C	-20%
Nc1ccccc1O	-2%
COc1ccc(/C=C/C(=O)Nc2ccc3c(c2)OCCO3)cc1OC	-18%
COc1ccc(S(=O)(=O)c2ccc(OC)cc2)cc1	-16%
O=C(NCc1ccc2[nH]c3c(c2c1)CCCC3)c1ccc(S(=O)(=O)N2CCCC2)cc1	-2%
O=C(Nc1c(C(=O)Nc2ccccc2)cnn1-c1ccccc1)c1ccco1	-9%
CCCCNc1cc(C)oc(=O)c1C(C)=O	-7%
Cc1ccc(C(=O)Nc2ccc3c(c2)OCCO3)o1	-25%
Cc1ccc(S(=O)(=O)N(C)CC(=O)Nc2cccc(C)n2)cc1	-8%
O=C(Nc1cc(C(F)(F)F)ccc1N1CCOCC1)c1ccc(Br)o1	-5%
O=C(O)CCc1ccc(-c2ccccc2)n1CC(=O)O	u
COc1cccc(C2OC(=O)c3ccccc3N2C(C)=O)c1OC(C)=O (configuration not stated)	-2%

(cont.)
SMILES	HPGD block
O=S(=O)(NCCOCC(F)(F)C(F)F)c1ccc2oc3ccccc3c2c1	-9%
Cn1c(CN2CCCC2)nc2cc(NC(=O)c3ccco3)ccc21	-6%
COc1ccc(-n2cc(-c3ccc(C)cc3)[n+]3c2SCC3)cc1	-2%
COc1ccc(NC(=O)C2CCCO2)cc1 (configuration not stated)	25µM*
Cc1c(NS(=O)(=O)c2ccc3c(c2)CCN3C(=O)C2CC2)c(=O)n(-c2ccccc2)n1C	-7%

Already shown: entries from further up.
SMILES	HPGD block
O=C(Nc1ccc2c(c1)OCO2)C1CCCN(c2nc3ccccc3s2)C1 (configuration not stated)	-5%
Cc1cccc(N2CCN(C(=O)/C=C/c3ccco3)CC2)c1C	-20%
Nc1ccccc1O	-2%
COc1ccc(/C=C/C(=O)Nc2ccc3c(c2)OCCO3)cc1OC	-18%
COc1ccc(S(=O)(=O)c2ccc(OC)cc2)cc1	-16%
O=C(NCc1ccc2[nH]c3c(c2c1)CCCC3)c1ccc(S(=O)(=O)N2CCCC2)cc1	-2%
O=C(Nc1c(C(=O)Nc2ccccc2)cnn1-c1ccccc1)c1ccco1	-9%
CCCCNc1cc(C)oc(=O)c1C(C)=O	-7%
Cc1ccc(C(=O)Nc2ccc3c(c2)OCCO3)o1	-25%
Cc1ccc(S(=O)(=O)N(C)CC(=O)Nc2cccc(C)n2)cc1	-8%
O=C(Nc1cc(C(F)(F)F)ccc1N1CCOCC1)c1ccc(Br)o1	-5%
O=C(O)CCc1ccc(-c2ccccc2)n1CC(=O)O	u
COc1cccc(C2OC(=O)c3ccccc3N2C(C)=O)c1OC(C)=O (configuration not stated)	-2%
O=S(=O)(NCCOCC(F)(F)C(F)F)c1ccc2oc3ccccc3c2c1	-9%
Cn1c(CN2CCCC2)nc2cc(NC(=O)c3ccco3)ccc21	-6%
COc1ccc(-n2cc(-c3ccc(C)cc3)[n+]3c2SCC3)cc1	-2%
